# Bioassay records (PubChem BioAssay)
# Vaccinia mCherry: vaccinia inhibition (mCherry reporter); AID 720579; hit rate 0.63% among 310,000; Vaccinia virus mCherry reporter infection, fluorescence; about a quarter of the inactives have no number; Potency, µM (titrated, usually from 36.5 µM), without a hit: at the top dose activity change, negative = inhibition, actives largely listed as inhibitors; active = well fitted inhibition curve with a large enough effect; inconclusive = small, poorly fitted or top-dose-only effect; inactive = no such curve, though single readings can be large or run the other way; tested in A549 cells; further: nearly all actives have a fitted effect of over 35% in size; inactives centre near -10
# VACV Venus inh: vaccinia inhibition (Venus reporter). Vaccinia virus Venus reporter expression, fluorescence. Potency, µM (titrated, usually from 36.5 µM), inactives show at the top dose activity change, negative = inhibition, actives largely listed as inhibitors. hit rate 0.46% among 330,000. AID 720580; active means well fitted inhibition curve with a large enough effect; inconclusive means small, poorly fitted or top-dose-only effect; inactive means no such curve, though single readings can be large or run the other way; tested in A549 cells; further: nearly all actives have a fitted effect of over 30% in size; inactives centre near -10
# * hit, by the source's call; i = inactive; ? = inconclusive; nt = not tested or not shown; & = joins results of further samples; [ ] = dose if it differs, or a comment. On the % scale 0 is the no-effect control and ±100 the full control effect; potency means the concentration at half of the fitted maximal effect.
SMILES,Vaccinia mCherry,VACV Venus inh
Cc1cccc(C)c1NC(=O)CN1CCCC1,i,-4%
C[C@H](CO)N1C[C@H](C)[C@H](CN(C)Cc2ccncc2)Oc2ncc(Br)cc2C1=O,i,-27%
COc1cc(N(C)C)c([N+](=O)[O-])cc1C(=O)NC(C)CNc1ccc([N+](=O)[O-])cc1Cl (stereo not drawn),i,?
Cc1cccc(NC(=O)CNC(=O)c2ccc3c(c2)OCO3)n1,-16%,-3%
Cc1cc(C)cc(CC(=O)N2CCC2(C)C(=O)NS(=O)(=O)c2ccc(C(C)(C)C)cc2)c1 (stereo not drawn),15%,-6%
CNC(=O)c1ccccc1NC(=O)c1ccc(C)c(S(=O)(=O)N2CCCCC2)c1,-25%,-19%
CCOc1ccc(NC(=O)Nc2ccccc2C(N)=O)cc1,i,-19%
CCc1ccc2[nH]c(=O)c(CN(Cc3ccco3)Cc3nnnn3Cc3ccco3)cc2c1,-7%,-16%
Cc1ccc2c(c1)N(CCCC(=O)Nc1cccc(C(F)(F)F)c1)C(=O)CO2,?,-8%&-11%
COc1ccc(NS(=O)(=O)c2cccc(C(=O)NCC(c3ccc(OC)cc3)N3CCCC3)c2)cc1 (stereo not drawn),?,-28%
O=C(COc1ccc2ccc(=O)oc2c1)N1CCC(C(=O)O)(c2ccccc2)CC1,i,2%
CCOC(=O)[C@]12CCC=C1N(CCC1=CCCCC1)C(=O)[C@H](CC(=O)NCCCCc1ccccc1)C2,i,0%
COc1ccc(-c2ccccc2)cc1NC(=O)[C@@H]1O[C@H](CO)[C@@H](O)[C@H]1O,i,-8%
O=C(COC(=O)CNC(=O)c1ccccc1)NC1CCCC1,-7%,6%
CC(=O)c1c(OC(=O)c2ccccc2Br)ccc2c(C)cc(=O)oc12,-1%,-2%
COc1cccc(-c2nc(N3CCN(C)CC3)c3ccccc3n2)c1O,10µM*,?
Cc1ccc(C2(C)NC(=O)N(CC(=O)NC(C)c3ccccc3)C2=O)cc1 (stereo not drawn),i,-17%
C[C@@H](O)Cc1cn(CC(=O)NCCCCCCCCCCC(=O)N2CCNCC2)nn1,-13%,-5%
COC(=O)C1=C(N)Oc2cc(C)n(Cc3cccnc3)c(=O)c2C1c1ccccc1OC (stereo not drawn),nt,-9%
CCOC(=O)c1[nH]ncc1CN1CCCC(C(=O)c2cccc(Cl)c2)C1 (stereo not drawn),-7%[7.34 µM],-7%[7.34 µM]
C(=C\c1ccnc2ccccc12)/c1ccc(N(Cc2ccccc2)Cc2ccccc2)cc1,-13%,10%
CC(/C=N/n1c(-c2ccc(C)cc2)n[nH]c1=S)=C\c1ccco1,-5%,-11%
Cc1ccc(N2C(=O)CC(Sc3nccc(C)n3)C2=O)cc1 (stereo not drawn),i,0%
Cc1ccc(CC2SC(=Nc3ccccc3)N(c3ccccc3)C2=O)cc1 (stereo not drawn),-16%,-19%
O=C(CN1C(=O)CCSc2ccc(S(=O)(=O)N3CCCC3)cc21)Nc1cccc(F)c1,-7%[7.34 µM],-4%[7.34 µM]
# The list continues.
SMILES,Vaccinia mCherry,VACV Venus inh
Cc1c(NC(=O)Cn2ccc([N+](=O)[O-])n2)c(=O)n(-c2ccccc2)n1C,-10%,2%
CCOC(=O)N1CCc2c(sc(NC(=O)C3=COCCO3)c2C(N)=O)C1,?,?
O=C(C1CCCCC1)N1CCC2CC1c1cc(Cl)ccc12 (stereo not drawn),i,-8%
CCN(CC(=O)Nc1ccccc1C(F)(F)F)C(=O)CSCc1ccc(C)cc1,i,-14%
Cc1ccc(S(=O)(=O)NC(N)=NCCc2ccccc2)cc1C,-4%,-20%
CCn1cc(C(=O)N2CCN(c3ccc(OC)cc3)CC2)c2cc(OC)c(OC)cc2c1=O,-15%,-5%
Cc1ccc(C)c(NC(=O)CN2C(=O)COc3ccc(S(=O)(=O)N4CCCC4)cc32)c1,-3%,-10%
COCc1cccc(N2C(=O)CC(C3C=C(C)C4C(=O)N(c5cccc(COC)c5)C(=O)C4C3)C2=O)c1 (stereo not drawn),i,-9%
CCOc1cc2c(cc1OC)C(NC(=O)c1ccco1)CC2=O (stereo not drawn),i,-12%
O=C(O)CCC(=O)c1ccc(C2CCCCCC2)cc1,3%,6%
COc1ccc(CC(=O)Nc2cccc(-c3nnc(-c4ccccc4)o3)c2)cc1OC,11µM*,?
COCCNC(=O)c1ccc2c(c1)N(Cc1ccc(C(F)(F)F)cc1)C(=O)c1ccccc1S2,-13%,-10%
CC(CN1CCCCC1)OC(=O)c1cccc(F)c1 (stereo not drawn),-14%,-3%
COc1ccc(C(CNC(=O)Cc2ccc(-c3ccccc3)cc2)N(C)C)cc1 (stereo not drawn),?,-17%
Cn1c(C(=O)NC2CCCC2)cc2c(=O)n(C)c3ccccc3c21,-8%,-7%
c1ccc(CCNC2=NCCS2)cc1,-4%,-2%
Cc1ccc(F)c(NC(=O)Nc2ccc3snnc3c2)c1,-4%,-3%
COc1ccc(NC(=O)C(=O)NCCN2CCN(C(=O)c3cccc(Br)c3)CC2)cc1,-10%,-17%
O=C(NNC(=O)C1CCCCC1)c1ccco1,-1%,-9%
CN1C(=O)N(C)C(=O)C(CCc2ccncc2)(Cc2ccc3c(c2)OCO3)C1=O,-14%,12%
O=C(COC(=O)c1cc2ccccc2oc1=O)Nc1cccc(S(=O)(=O)N2CCCCCC2)c1,-3%,-15%
O=C(NCC1CCCO1)C1c2ccccc2C(=O)N1Cc1ccc2c(c1)OCO2 (stereo not drawn),nt,-26%
Cc1ccc(Cn2c(CO)cnc2SCc2cccc(F)c2)cc1,2%,-11%
O=C(COc1ccccc1C(=O)Nc1cccc(F)c1)Nc1ccc(Br)cc1,?,?
O=C(O)CNC(=S)N(Cc1ccco1)Cc1ccccc1Cl,-11%,-1%
# Other entries.
SMILES,Vaccinia mCherry,VACV Venus inh
OCCN(Cc1ccccc1)Cc1ccc(Cl)cc1,i,-21%
CCOC(=O)c1sc(NC(=O)COC(=O)CNC(=O)C2CCCCC2)c(C(=O)OCC)c1C,-14%,-13%
CCCC1(CCC)NC(=O)N(CC(=O)Nc2ccc(Cl)c(S(=O)(=O)N3CCOCC3)c2)C1=O,-24%,-16%
COC(=O)Cc1cnc(NC(=O)CSc2nc(C(C)C)cc(=O)[nH]2)s1,5%,0%
O=S(=O)(CCc1ccccc1)CS(=O)(=O)CCc1ccccc1,-8%,-14%
Cc1nc2cc(C(=O)O)ccc2n1-c1ccccc1,i,-4%
CCCN1CCN(C(=O)c2cc(COc3ccc4ncccc4c3)on2)CC1,i,-10%
CCc1ccc(-c2nc(CN3CCCC(C(=O)NCc4ccc(C)cc4)C3)c(C)o2)cc1 (stereo not drawn),?,-21%
COc1ccc(-n2c(=S)[nH]c3cc(C(=O)Nc4ccc(F)cc4)ccc3c2=O)c(OC)c1,-19%,-25%
COc1ccc2c(c1)c1c(c(=O)n(-c3ccc(OC)c(OC)c3)c(=O)n1CC(=O)N1CCCC1)n2C,-5%,2%
CO/N=C/CC(=O)c1ccc(-c2ccccc2)cc1,-23%,-6%
CS(=O)(=O)N(CC(=O)Nc1ccc(S(=O)(=O)N2CCCC2)cc1)c1ccccc1F,-18%,-10%
O=C(CSc1nnc2ccccn12)c1ccc(OC(F)F)cc1OC(F)F,-15%,-17%
Cc1[nH]c2ccccc2c1CCCO,-3%,-10%
CC1CCCN(CCC(=O)Nc2ccccc2)C1 (stereo not drawn),-13%,-7%
COc1cccc(-c2nn3c(=O)cc(CN4CCN(C(=O)/C=C/c5ccccc5)CC4)nc3s2)c1,?,?
COc1ccc(CCNc2nc(SCc3ccccc3F)nc3ccccc23)cc1OC,-27%,-26%
CCCCN1CC(=O)N2[C@H](c3ccc(OC)cc3)[C@@H]3C(=O)N(CC)C(=O)[C@@H]3[C@]2(Cc2ccccc2)C1=O,-12%,0%
CC(OC(=O)c1cccc(S(=O)(=O)Nc2ccccc2F)c1)C(=O)NCc1ccc2c(c1)OCO2 (stereo not drawn),-15%,-2%
O=C1CCC(O)CCN1CCSc1ccccc1 (stereo not drawn),-15%&-3%,-9%&-14%
CCc1c(C)nc(SCC(N)=O)c(C#N)c1C,-1%,-6%
CCN1C(=NCc2ccc(OC)cc2)N[C@@H](c2ccccc2)C(C(=O)OC)=C1C,3%,-6%
O=C(CSc1cccc[n+]1[O-])Nc1cc([N+](=O)[O-])ccc1Cl,i,-1%
Cc1ccc(-c2cnc3c(Cl)c(C)nn3c2)cc1,i,-29%
CCOC(=O)N/N=C\C=C\c1ccco1,i,-4%
# (next part)
SMILES,Vaccinia mCherry,VACV Venus inh
Cc1ccc(-c2nc(=Nc3ccccc3)sn2-c2ccccc2)cc1,14µM*,?
CCCn1nnc(NC(=O)Cc2ccc(Cl)cc2)n1,-21%,-7%
CC(C)NC(=O)C1(C)CCN1Cc1cccc(C#N)c1 (stereo not drawn),i,-1%
CCNC(=O)CC1C(=O)N(c2ccc(C)cc2)C(=O)N1Cc1ccccn1 (stereo not drawn),i,-11%
COc1ccc(CC(=O)Nc2ccc(-c3nc4ccccc4s3)cc2Cl)cc1OC,-27%,-8%
Cc1ccc(CCNC(=O)C2CCCN(C(=O)c3cc4sccc4n3C)C2)cc1 (stereo not drawn),-14%,-10%
CN(C)S(=O)(=O)c1ccc(N2CCCC2)c(C(=O)NC2(C)CCS(=O)(=O)C2)c1 (stereo not drawn),-23%,-10%
Cn1c(=O)c2c(SCC(=O)Nc3ccccc3F)nc(-c3ccccc3F)nc2n(C)c1=O,i,-12%
Cc1occc1C(=O)NCc1ccc2c(c1)OCO2,nt,-13%
COc1ccc(CCn2c(O)c(/C=N/NC(=O)c3ccncc3)c(=O)[nH]c2=O)cc1OC,-1%,-20%
COc1cc2c(cc1OC)C(c1ccco1)CC(=O)N2 (stereo not drawn),-8%,-8%
CCc1c(C)sc(NC(=S)N2CC(C)OC(C)C2)c1C(=O)OC (stereo not drawn),-9%,-14%
CCOc1ccc2cc(C3CC(c4ccco4)=NN3S(C)(=O)=O)c(Cl)nc2c1 (stereo not drawn),5%,-12%
O=C(NCc1ccccc1Cl)C1CCC(CNc2c(N3CCOCC3)c(=O)c2=O)CC1 (stereo not drawn),-18%,3%
Cc1ccc(N2C(=O)C(CC(=O)Nc3cccc(F)c3)N(CCc3ccccc3F)C2=O)cc1 (stereo not drawn),-22%,-4%
O=C(O)C1C2CCC(C2)C1C(=O)Nc1ccccc1 (stereo not drawn),-10%,-8%
CCCS(=O)(=O)N1CCC(C(=O)NCc2ccc(F)cc2)CC1,-14%,-8%
C#CCOCCOCCOCCNc1nc(N2CCN(C(=O)[C@H](C(C)C)n3cc(CCO)nn3)CC2)nc(N2CCN(C(=O)[C@H](Cc3ccc(O)cc3)n3cc(CCO)nn3)CC2)n1,-5%,-8%
Cc1ccc(CNC(=O)c2ccc(OCC(C)C)cc2)n1C,i,-17%
CCN(CC(=O)NCc1ccc(F)cc1)Cc1cc(=O)n2ccsc2n1,-1%,-3%
Cc1cc(Cl)ccc1OCC(=O)Nc1cccc(S(=O)(=O)NC2=NCCCCC2)c1,-26%,-22%
Nn1c(COc2ccccc2)nc2ccccc2c1=O,nt,-12%
CCCOc1ccc(-c2nc[nH]c2[N+](=O)[O-])cc1,i,-4%
Cc1csc(NC(=O)Cc2ccc(Br)cc2)n1,-13%,-11%
O=C(O)/C=C/C(=O)NCc1cn(-c2ccccc2)nc1-c1cccc(Br)c1,i,-11%

# Four compounds out of the list, ordered by SMILES length, descending.
SMILES,Vaccinia mCherry,VACV Venus inh
Cn1c(=O)c2c(SCC(=O)Nc3ccccc3F)nc(-c3ccccc3F)nc2n(C)c1=O,i,-12%
CCc1c(C)sc(NC(=S)N2CC(C)OC(C)C2)c1C(=O)OC (stereo not drawn),-9%,-14%
Cc1occc1C(=O)NCc1ccc2c(c1)OCO2,nt,-13%
Nn1c(COc2ccccc2)nc2ccccc2c1=O,nt,-12%

# A section from further up:
SMILES,Vaccinia mCherry,VACV Venus inh
Cc1ccc(CNC(=O)c2ccc(OCC(C)C)cc2)n1C,i,-17%
CCN(CC(=O)NCc1ccc(F)cc1)Cc1cc(=O)n2ccsc2n1,-1%,-3%
Cc1cc(Cl)ccc1OCC(=O)Nc1cccc(S(=O)(=O)NC2=NCCCCC2)c1,-26%,-22%
Nn1c(COc2ccccc2)nc2ccccc2c1=O,nt,-12%

# Continuation.
SMILES,Vaccinia mCherry,VACV Venus inh
O=C(Nc1ccc2c(c1)C(=O)NC2=O)c1cc(Cl)ccc1Cl,i,-20%
Cc1ccn(CC(=O)NC2CCCN(Cc3ccccc3F)C2)n1 (stereo not drawn),i,-12%
CCC(=O)N1c2ccc(S(=O)(=O)N(CCO)Cc3ccccc3)cc2CC1C (stereo not drawn),-12%,-6%
Cc1sc2ncnc(SCC(=O)N3CCCC(C(N)=O)C3)c2c1C (stereo not drawn),-10%,-11%
C#CCNc1c(C)c(C)nc2ncnn12,i,-14%
COc1cccc(NC(=O)C(=O)N/N=C/c2cc(C)n(-c3ccc(Cl)c(Cl)c3)c2C)c1,-7%,-16%
CC1CCN(S(=O)(=O)c2ccc(NC(=S)NC(=O)c3ccc(Cl)cc3)cc2)CC1,-14%,-4%
O=C(CSC1=Nc2ccccc2C2CC=NN12)Nc1ccc2c(c1)OCO2 (stereo not drawn),i,4%

# Reformatted field by field: part of the list above.
COC(=O)Cc1cnc(NC(=O)CSc2nc(C(C)C)cc(=O)[nH]2)s1
  Vaccinia mCherry = 5%
  VACV Venus inh = 0%
O=S(=O)(CCc1ccccc1)CS(=O)(=O)CCc1ccccc1
  Vaccinia mCherry = -8%
  VACV Venus inh = -14%
